Screening results from PubChem BioAssay.
T cruzi repl: inhibitors of intracellular T. cruzi growth, primary screen, luminescence, NIH3T3 host cells; inhibition, % (no concentration beside the values); 300,000 compounds, 1.4% hits; AID 1885, 2009; T. cruzi beta-gal in NIH3T3, 90 h;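 active = mean inhibition across valid replicates above about 55%, limit read from the data; inconclusive = mean below that limit but half or more replicates reach it; inactive = mean below it, under half of replicates reach it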;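 note: signal also drops with host cell toxicity which is not excluded here; 0% = plate median of DMSO wells and 100% = zero luminescence signal; higher percent means less beta-gal luminescence so fewer parasites; stock transfer was 50 nL into about 50 µL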
Beta apoptosis: inhibitors of cytokine-induced beta cell apoptosis, primary screen, luminescence; INS-1E cytokine-induced death, ATP luminescence, 48 h; percent of positive-control rescue, neutral wells zero; AID 435005, 2010; protection from apoptosis, % (test concentration not listed); 300,000 compounds, 0.8% hits;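 active = all replicates at 75% or more, or half of them and the mean; inconclusive = half reach 75% but not the mean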;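 note: 0% = cytokine-treated negative control wells and 100% = positive control rescue; higher means more ATP so stronger rescue from cytokine killing; wells of about 40 µL received 100 nL stock; the first replicate is given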
ALR H2O2 inh: inhibitors of human ALR sulfhydryl oxidase, primary screen, biochemical, H2O2 detection, HRP-luminol luminescence, single point. purified ALR, DTT oxidation. inhibition, % (test concentration not listed). FAD-linked sulfhydryl oxidase ALR (Homo sapiens), P55789. 290,000 compounds, 3.8% hits;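 active = mean and each replicate at 75% or more; inconclusive = only one of the two met; inactive = neither met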;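 note: stock transfer was 7.5 nL into about 7.5 µL; 0% = neutral wells and 100% = wells with inactivated enzyme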
Bfl-1 A1 inh: caspase 3/7 activation in MEF A1-2A-BIM cells, primary screen, A1 inhibitor project, cell-based, luminescence, HTS; Caspase-Glo 3/7 luminescence, 3 h; percent of clofoctol response, vehicle zero; caspase activation, % (test concentration not listed); 330,000 compounds, 0.066% hits; AID 2462, 2010;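 active = over half of replicate activation scores above 10%, or exactly half above 10 with the replicate mean above 10; inconclusive = replicate mean below 10 yet half the replicates above 10; inactive = over half of replicates below 10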;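 note: wells of about 30 µL received 50 nL stock; many hits fall short of the cut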
Beta2AR agonist: beta2AR agonists driving receptor internalization, primary screen, cell-based, FAP fluorogen, flow cytometry; Beta-2 adrenergic receptor (Homo sapiens), P07550; Am2.2-beta2AR cells; reference of the scale not given here; response, % (no concentration beside the values); 340,000 compounds, 0.43% hits; AID 504454, 2011;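 active = response above a set limit, near 3 SD of response in nonfluorescent compounds, cut at about 42% in these data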;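 note: stock transfer was 100 nL into about 11 µL; a reference agonist was the positive control; negative values mostly stem from fluorescent compounds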
LANA-H2B inh: blockers of LANA interaction with H2A/H2B – biochemical, FP readout, HTS, primary screen; Protein LANA1 (Human herpesvirus 8 type P (isolate GK18)), Q9QR71; cell-free LANA-H2A/H2B peptide, fluorescence polarization; inhibition, % (test concentration not listed); 320,000 compounds, 0.6% hits; in the data active = inhibition mostly above about 10%, no sharp cut-off; inactive = mostly below about 6.7%;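 note: stock transfer was 7.5 nL into about 10 µL; 0% = median of vehicle wells and 100% = median of positive control wells; one replicate is shown; the record names a cut of 25% in any replicate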
Target sequence (Q9QR71 whole entry, looked up): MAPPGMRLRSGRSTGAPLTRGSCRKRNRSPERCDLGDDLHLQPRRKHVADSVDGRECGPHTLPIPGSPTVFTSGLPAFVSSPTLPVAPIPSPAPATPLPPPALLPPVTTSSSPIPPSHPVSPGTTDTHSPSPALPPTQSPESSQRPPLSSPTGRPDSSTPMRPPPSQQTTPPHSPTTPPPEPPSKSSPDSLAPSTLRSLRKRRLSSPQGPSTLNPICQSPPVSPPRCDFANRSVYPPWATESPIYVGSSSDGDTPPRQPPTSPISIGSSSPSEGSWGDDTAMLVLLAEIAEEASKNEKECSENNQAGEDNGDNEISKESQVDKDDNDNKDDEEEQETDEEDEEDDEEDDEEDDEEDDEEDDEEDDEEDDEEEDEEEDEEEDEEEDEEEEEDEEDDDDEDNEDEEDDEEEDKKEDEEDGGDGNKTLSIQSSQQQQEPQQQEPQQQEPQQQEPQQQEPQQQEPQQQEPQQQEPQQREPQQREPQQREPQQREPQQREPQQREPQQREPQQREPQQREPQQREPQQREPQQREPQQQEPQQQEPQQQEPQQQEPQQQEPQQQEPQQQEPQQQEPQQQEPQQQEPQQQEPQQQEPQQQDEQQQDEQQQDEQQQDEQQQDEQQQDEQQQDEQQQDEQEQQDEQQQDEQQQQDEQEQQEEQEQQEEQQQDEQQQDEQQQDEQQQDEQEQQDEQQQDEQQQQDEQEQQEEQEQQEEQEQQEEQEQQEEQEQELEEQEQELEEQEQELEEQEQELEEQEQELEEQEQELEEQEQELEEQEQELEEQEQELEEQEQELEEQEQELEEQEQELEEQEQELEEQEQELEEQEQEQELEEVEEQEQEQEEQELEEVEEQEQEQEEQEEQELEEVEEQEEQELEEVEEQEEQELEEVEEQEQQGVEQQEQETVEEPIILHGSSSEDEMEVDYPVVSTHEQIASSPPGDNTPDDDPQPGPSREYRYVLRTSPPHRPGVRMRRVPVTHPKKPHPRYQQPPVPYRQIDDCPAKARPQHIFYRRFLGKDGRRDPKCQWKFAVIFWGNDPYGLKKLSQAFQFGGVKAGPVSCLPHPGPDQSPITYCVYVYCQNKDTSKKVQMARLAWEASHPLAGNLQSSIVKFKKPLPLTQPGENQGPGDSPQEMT
Ecoli rRNA inh: reduced GFP signal of wild-type E. coli, primary screen, bacterial rRNA inhibitor project, GFP/RFP fluorescence, OD600, single point; E. coli WT GFP vs humanized-ribosome RFP mutants, 24 h; stronger effect = lower value; DMSO median 0, no signal -100; GFP signal change (wild-type ribosome), % (no concentration beside the values); 350,000 compounds, 1.6% hits; AID 720706, 2013;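 active = significant combined selectivity score with lowered wild-type GFP, culture density cut under 30%, mutant RFP and density less affected; inactive = any of these conditions unmet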; note: one replicate is shown; some compounds called inactive have numbers as strong as hits
Calb FLC: C. albicans growth inhibition with fluconazole, primary screen, CaCi-2 strain, Alamar Blue fluorescence; 300,000 compounds, 0.57% hits; C. albicans CaCi-2 (fluconazole-resistant clinical isolate) + fluconazole, 48 h; growth inhibition, % (concentration not given with the values);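 active = most replicates above 75%; inconclusive = exactly half above 75%; inactive = most below 75%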;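 note: all wells also contain fluconazole at 8 µg/ml as a sub-toxic cotreatment; 0% = median of DMSO wells and 100% = median of geldanamycin control wells; wells of about 8 µL received 7.5 nL stock; the first replicate is given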
Ecoli rRNA inh OD600: recorded beside Ecoli rRNA inh, whose call it bears; OD600 change, %; measured here: OD600 growth;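 optical density of the mix in the first replicate; 0 = DMSO median and -100 = no signal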
Ecoli rRNA inh RFP: second read-out of Ecoli rRNA inh, no call of its own (marks repeat the call); RFP signal change, %; measured here: RFP humanized mutant strains;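 first replicate; 0 = DMSO median and -100 = no signal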
* marks the source's active call; other numbers are inactive results; ? = inconclusive; · = not tested or not shown.

SMILES	T cruzi repl	Beta apoptosis	ALR H2O2 inh	Bfl-1 A1 inh	Beta2AR agonist	LANA-H2B inh	Ecoli rRNA inh	Ecoli rRNA inh OD600	Ecoli rRNA inh RFP	Calb FLC
CC(C)c1ccc(S(=O)(=O)NC2CCS(=O)(=O)C2)cc1 (stereo unspecified)	-4	2	-6	0.0	-4	-1.9	0	0	0.1	-4
O=C(CN1CCOCC1)Nc1cc(Cl)ccc1Cl	-16	-6	-12	1.0	-11	-8.2	·	·	·	-4
Cc1cccc(-n2c(CNC(=O)c3ccc(S(=O)(=O)N4CCCC4)cc3)n[nH]c2=S)c1	-17	4	56	0.6	-2	-5.4	14	-11	5.0	3
c1ccc(N/N=C(\Cc2nc3ccccc3[nH]2)c2ccccc2)cc1	32	9	·	-3.0	-1	·	3	4	-7.1	-13
CC1CC(Nc2ccccc2)c2ccccc2N1C(=O)c1ccco1 (stereo unspecified)	19	1	99*	0.5	8	0.8	-28*	-21*	-6.3*	63
CCCSc1nc2c(cnn2-c2ccc(F)cc2)c(=O)[nH]1	-8	-3	-21	1.2	2	-1.3	-28	-36	-1.6	7
O=C(NCCCCc1ccccc1)c1cccc(Br)c1	1	0	-3	1.2	-5	-2.4	-24	-25	-5.0	-10
NC(=O)CC(NC(=O)Cc1cccc2ccccc12)c1ccc(NCCc2cccc(F)c2)c([N+](=O)[O-])c1 (stereo unspecified)	-7	0	0	0.4	1	-1.4	2	4	-8.0	-9
Cc1ccc(S(=O)(=O)N2CCC(C(=O)OCCOc3ccccc3)CC2)cc1C	-11	-8	-5	1.4	-1	-3.0	1	5	0.8	7
CCN(CCCNC(=O)CCNC(=O)Cn1cnc2ccccc2c1=O)c1ccccc1	14	-6	99*	-1.1	-4	-0.2	·	·	·	1
N#Cc1cc([N+](=O)[O-])ccc1NC(=O)CSc1n[nH]c(=O)[nH]c1=O	·	-5	-24	-1.5	11	2.9	7	3	1.1	·
COc1ccc(C(=O)COC(=O)c2cccc(-n3cnnn3)c2)c(OC)c1	-13	6	-1	-0.1	4	-4.2	5	2	-0.2	-2
COCCOC(=O)c1c(C)oc2ccc(NS(=O)(=O)c3ccc(F)cc3)cc12	7	14	-3	1.3	1	3.8	-20	-27	16	-3
CC(=O)c1c(C)[nH]c(C(=O)OCC(=O)N2CCc3ccccc32)c1C	0	-11	-4	1.2	29	-1.0	·	·	·	-2
Nc1nonc1-n1nnc(C(=O)N/N=C/c2ccccn2)c1-c1ccccc1	3	·	·	·	4	·	12	5	0.6	4
COC(C/C=C\C(=O)[C@H](C)OCc1ccccc1)OC	2	-5	83*	1.4	11	-1.3	17	21	5.1	-10
Cc1cc(=O)oc2c(CN3CCN(C)CC3)c(O)c(Cl)cc12	-5	-2	-1	0.2	-1	-3.8	4	11	-3.9	6
COc1ccccc1N1CCN(CC(O)COc2ccc3c(c2)OCO3)CC1 (stereo unspecified)	5	-3	-22	-0.3	4	-0.1	·	·	·	-13
O=S(=O)(Nn1cnnc1)c1ccccc1	-6	-3	-1	1.3	19	7.1	9	12	-3.6	1
O=C(CSc1nnc(-c2ccco2)c(-c2ccco2)n1)c1ccccc1	-15	-9	99*	0.1	-10	7.3	-12	-2	-2.3	-4
CC(=O)c1sc(N/N=C2\CC3CCC2(C)C3(C)C)nc1C (stereo unspecified)	29	6	-1	-0.4	-1	-2.7	2	-11	2.0	1
CN(c1ccccc1)c1nc(N)c([N+](=O)[O-])c(Nc2ccccc2F)n1	37	-8	-16	-0.8	14	-1.0	6	12	4.8	4
Cc1ccc(C(=O)NCCSc2snnc2C)cc1	-6	2	94*	-0.5	-18	-6.2	·	·	·	-13
O=C(N/N=C/c1cccnc1)c1ccccc1NS(=O)(=O)c1cccs1	-8	?	·	-0.7	3	-3.8	-30*	-6.6*	-3.9*	-5
O=C(Nc1ccccc1C(F)(F)F)c1cc2ncc(CCCl)cn2n1	-4	0	·	-0.3	-23	-4.6	·	·	·	-4
CCOc1cc(C)ccc1OCc1nnc(SCC(=O)c2cccc([N+](=O)[O-])c2)n1CC	9	-4	0	-0.5	-1	-0.7	·	·	·	-2
Cc1ccc(NC(=O)c2ccc(NS(=O)(=O)/C=C/c3ccccc3)cc2)nc1	10	-4	6	0.8	-2	-2.3	-16	-25	-1.7	-2
O=C(NC1CCCC1)c1cccc(S(=O)(=O)Nc2ccccc2F)c1	·	-6	-22	0.0	2	-1.0	-7	-8	-7.4	·
CC(C)Oc1ccc(OCCn2c(=S)[nH]c3c(N)ncnc32)cc1	7	-1	59	0.0	-1	0.0	-31	-35	-1.7	3
COC(=O)c1cc(S(=O)(=O)NCc2cccc(Br)c2)c[nH]1	-4	·	-2	-0.2	-1	0.5	-3	0	0.7	0
CC(Sc1nccn1C)C(=O)Nc1ccc(Cl)cn1 (stereo unspecified)	-5	-5	-8	0.1	-3	-0.4	11	8	-1.1	0
O=C(Nc1nccs1)c1ccc(-c2ccc(F)c(Cl)c2)o1	17	2	-1	0.2	6	-0.4	-2	7	5.6	19
O=C(O)Cn1c(SCCOc2ccc(Cl)cc2)nc2ccccc21	5	1	-3	1.5	-3	-3.1	-26	-19	-1.6	4
Cc1ccc2nc(-c3ccccc3)cc(C(=O)O)c2c1	-11	2	90*	-0.1	8	5.4	·	·	·	-12
CC1(C)CC(=O)C2=C(C1)Oc1ncn(CCCO)c(=N)c1C2c1ccccc1 (stereo unspecified)	-21	0	-20	1.1	-4	-2.7	3	-1	-0.6	-9
CCOC(=O)C1=C(C)N=C2SCCC(=O)N2C1c1ccc(C(=O)OC)cc1 (stereo unspecified)	-8	-8	-6	1.0	0	-13	·	·	·	6
CC(C)Cc1nnc(NC(=O)CN2C(=O)NC3(CCCCC3)C2=O)s1	-21	1	-1	-0.1	0	-0.6	1	0	1.6	-8
O=C1N[C@@H](Cc2ccccc2)C(=O)N2[C@H]1C[C@]1([C@]34C[C@H]5C(=O)N[C@@H](Cc6ccccc6)C(=O)N5[C@H]3N(S(=O)(=O)c3ccccc3)c3ccccc34)c3ccccc3N(S(=O)(=O)c3ccccc3)[C@H]21	7	0	1	1.1	15	-8.4	11	18	9.0	-7
CCS(=O)(=O)N1CCC(C(=O)NCCCN2CCN(c3ccccc3F)CC2)CC1	-5	-5	6	1.1	14	5.6	·	·	·	2
CC(=O)N1CCc2cc(S(=O)(=O)NC3CCCCC3)ccc21	3	2	-3	0.7	-8	2.5	4	10	-1.4	-6
S=c1[nH]nc(COc2ccccc2)n1/N=C/c1ccc(Cl)cc1	9	3	7	0.0	12	1.4	-6	-12	0.2	-4
CCOC(=O)c1cc(C(=O)OCC)c(=O)[nH]c1SCc1ccccc1	1	·	36	0.1	-5	-5.7	-34	-53	-5.6	-5
CCOC(=O)Nc1ccc2c(c1)N(C(=O)OC)c1ccccc1CC2	-3	·	7	-0.5	-15	-0.6	·	·	·	7
CCOC(=O)c1c(NC(=O)CCN2CCOCC2)sc2c1CC(C)(C)OC2	8	-11	·	0.3	-2	-2.2	·	·	·	-2
COc1ccc([C@@H]2CC=C(C(=O)O)[C@H](c3ccc(F)cc3)N2S(=O)(=O)c2ccccc2C)cc1	·	2	9	-0.3	-8	-3.0	-28	-37	-8.6	·
COc1ccc(Nc2cc(Cl)nc(N)n2)cc1	8	-4	-8	-1.2	-3	1.8	-7	1	-4.6	-4
COC(=O)CN1CC(=O)N(c2ccccc2)C1=S	-14	-5	12	-0.3	2	6.5	·	·	·	7
Cc1ccc(-n2c(Cc3cccn3C)nnc2SCC(=O)Nc2nnc(C)s2)cc1	3	-3	6	-0.1	3	-2.6	·	·	·	4
CCN1C(=O)[C@H]2[C@@H](c3ccc(OC)cc3)N3C(=O)CN(CCOC)C(=O)[C@@]3(C)[C@H]2C1=O	-5	1	-7	0.0	-11	2.4	-1	7	-16	-5
COC(=O)CNC(=O)CCc1nnc(C2(c3ccc(Cl)cc3)CCC2)o1	-7	2	·	0.0	-16	5.7	-4	3	-3.6	6
(next part)
SMILES	T cruzi repl	Beta apoptosis	ALR H2O2 inh	Bfl-1 A1 inh	Beta2AR agonist	LANA-H2B inh	Ecoli rRNA inh	Ecoli rRNA inh OD600	Ecoli rRNA inh RFP	Calb FLC
C/C=C/C(=O)OCC(=O)Nc1cccc(S(=O)(=O)NC2=NCCCCC2)c1	50	-8	-2	0.9	4	1.5	-3	3	0.2	2
CCN(Cc1ccncc1)C(=O)c1cccc(S(=O)(=O)N2CCCCC2)c1	·	0	-4	-0.2	-8	-5.0	0	8	-3.4	·
CCCCOC(=O)c1ccc(NC(=O)COC(=O)CN2C(=O)NC3(CCCC3)C2=O)cc1	-23	1	·	0.6	0	-1.8	1	7	5.7	1
CC(=O)Nc1ccc(-n2cnnn2)cc1	-7	-3	·	-0.3	3	9.8	·	·	·	7
CCn1c(=O)c(C(=O)NCCc2ccc(Cl)cc2)c(O)c2ccccc21	6	0	-2	0.1	10	10	24	10	0.8	40
COc1ccc(C)cc1N(C(=O)c1ccccc1F)c1nc2ccccc2s1	-1	-1	·	-0.9	3	·	·	·	·	-9
CCCN(CCC)C(=O)c1cc([N+](=O)[O-])cc2c1-c1ccc([N+](=O)[O-])cc1C2=C(C#N)C#N	80*	?	5	2.7	·	-1.5	0	8	-2.4	19
C=CCn1c(CNC(=O)c2ccco2)nnc1SCC(=O)c1ccc(OC)cc1	1	-8	29	-1.3	0	4.1	-3	6	3.3	-1
CCCC(CCC)n1[nH]c(=O)c2c(C)cc(C)nc21	·	2	6	-0.9	0	-0.3	·	·	·	2
COc1cc2c(cc1OC)CN(C(=O)CSc1ccccc1C)CC2	·	-11	-10	0.2	-1	1.7	-2	-20	-1.2	·
COc1cc(CNc2ccc(N3CCOCC3)cc2)ccc1OCC(=O)NC(C)(C)C	4	-14	99*	0.8	7	-2.0	7	19	-0.1	0
Nc1[nH]n(-c2ccccc2)c(=O)c1N=Nc1ccc2c(c1)OCO2	12	15	·	-4.2	0	-2.7	4	25	20	4
O=[N+]([O-])c1cccc(N=Cc2sc3ccccc3c2O)c1	-16	-5	-9	-0.6	·	2.6	3	10	17	-10
CCC(=O)NC(c1cc(Cl)c2ccccc2c1O)C1CC1 (stereo unspecified)	·	-4	-29	-1.6	-6	1.9	-1	-21	-18	·
COc1cc(C(=O)Nc2cc(-c3cn4cccnc4n3)ccc2C)cc(OC)c1OC	-13	4	-2	0.3	-17	-7.2	2	2	1.0	1
Cc1ccc(SCc2noc(C(=O)NCC3CCCO3)c2C(=O)O)cc1C (stereo unspecified)	5	-7	·	-0.1	-1	-0.5	-24*	-7.5*	-4.6*	-3

Only part of the results is shown; count on the stated rates, not on these rows.
